High-throughput results (PubChem)
CBX7 AlphaScr = CBX7 chromodomain binding inhibitors, primary screen, biochemical, AlphaScreen; normalised signal (fraction of DMSO) (no concentration beside the values); AID 1224903, 2016; AlphaScreen His6-CBX7 / biotin-H3K27me3 peptide binding; hits give low values; actives 1.1% (n = 66,000); in the data active = normalised signal below about 0.5;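 also: 100 nL library stock added to about 20 µL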
Target sequence (O95931 whole entry, looked up): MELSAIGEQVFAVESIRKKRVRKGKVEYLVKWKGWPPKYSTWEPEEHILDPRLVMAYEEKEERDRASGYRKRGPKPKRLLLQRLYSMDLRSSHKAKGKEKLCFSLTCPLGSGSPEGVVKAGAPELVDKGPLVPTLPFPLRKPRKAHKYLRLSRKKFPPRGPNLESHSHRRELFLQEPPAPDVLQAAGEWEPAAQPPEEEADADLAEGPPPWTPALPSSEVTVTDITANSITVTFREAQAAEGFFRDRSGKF
CBX7 AlphaScr z-score = recorded beside CBX7 AlphaScr, whose call it bears; z-score; measured here: z-score of CBX7 signal; some inactives read as strong as hits; reference of the scale not given here;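 same signal on another scale; lower means less binding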
Numbers without * were called inactive.

SMILES | CBX7 AlphaScr | CBX7 AlphaScr z-score
CCCS(=O)(=O)N1CCC(C(=O)NCCN(CC)c2ccccc2)CC1 | 0.96 | -0.84
COc1ccc(-c2nc(CN3CCCC(C(=O)NCCc4ccc(C)cc4)C3)c(C)o2)cc1 (stereo not given) | 0.94 | -1.6
O=C(CN1CCN(Cc2ccc(F)cc2Cl)C1=O)NC1CCCCCCC1 | 0.91 | -1.8
CC1CCC(NC(=O)C2c3cccn3CC(=O)N2c2cccc(Cl)c2)CC1 (stereo not given) | 0.97 | -0.6
COc1ccc2nc(NC(=O)Cn3c(C)cc4ccccc4c3=O)sc2c1 | 0.99 | -0.29
Cc1cc(C(=O)Nc2ccc(C(C)C)cc2)n(-c2ccccc2)n1 | 1 | 1.4
CCCCNC(=O)c1cc2c(C)nccc2[nH]c1=O | 0.92 | -2
Cc1ccc(-c2cn(-c3ccc(Br)cc3)c(=O)[nH]2)cc1 | 0.94 | -1.4
Cc1nc(N2CCCCC2C)c2c(C)c(C(=O)N3CCN(c4ccccc4)CC3)sc2n1 (stereo not given) | 0.92 | -2.3
CCOC(=O)c1cnc2ccc(OCC)cc2c1Nc1cc(OC)ccc1OC | 0.92 | -0.89
CCC1=Nc2cc(C(=O)N3CCC(Cc4ccccc4)CC3)ccc2Sc2ccc(Cl)cc21 | 1 | 0.12
Cc1ccc(-n2nc3c(c2NC(=O)CCc2ccccc2)CSC3)c(C)c1 | 0.96 | -1.9
Cc1ccc(S(=O)(=O)N2CCC(C(=O)Nc3ccc(C(N)=O)cc3)CC2)cc1 | 1 | 2.2
Cc1ccc(-c2nc3ncncn3c2Nc2cccc(C)c2)cc1 | 0.94 | -2.2
COc1cccc(N2CCN(C(=O)c3cc4c(s3)-c3c(C)cccc3OC4)CC2)c1 | 0.98 | -0.44
O=C(Cn1nc(Cc2cccnc2)c2ccccc2c1=O)NCc1ccc2c(c1)OCO2 | 1 | 0.063
Cc1ccc(-c2nc3ncccc3o2)cc1NC(=O)c1ccc(F)cc1 | 0.77 | -2.5
O=C(C1CCC1)N1CCc2cc(S(=O)(=O)Nc3cccc(Cl)c3)ccc21 | 0.92 | -2.7
Cc1cccc2nc(NC(=O)c3ccnn3C)sc12 | 1.1 | 0.61
O=C(O)C1CCN(C2CC(=O)N(c3cccc4ccccc34)C2=O)CC1 (stereo not given) | 1 | 0.4

2 entries from above, with two lines to a compound.
Below each compound – CBX7 AlphaScr | CBX7 AlphaScr z-score
> CCCCNC(=O)c1cc2c(C)nccc2[nH]c1=O
 : 0.92 | -2
> Cc1ccc(-c2cn(-c3ccc(Br)cc3)c(=O)[nH]2)cc1
 : 0.94 | -1.4

The list continues.
SMILES | CBX7 AlphaScr | CBX7 AlphaScr z-score
COc1ccc(/C=C\c2onc(C)c2S(=O)(=O)N2CCC(C(=O)N3CCC(C)CC3)CC2)cc1 | 0.89 | -0.22
CCOCCn1cnc2sc(C(=O)NCCc3ccc(OC)c(OC)c3)c(C)c2c1=O | 1.1 | 2.1
CSCC[C@@H](C(=O)NCc1ccc2c(c1)OCO2)N1Cc2ccccc2C1=O | 0.95 | -0.14
COc1ccccc1CNC(=O)C1=CCN(S(=O)(=O)c2ccc(C)cc2)CC1 | 0.87 | -1.4
CCOc1ccc(-c2cn(-c3ccc(C)c(Cl)c3)c(=O)[nH]2)cc1 | 1.1 | 1.9
CC(NC(=O)c1ccc2c(c1)OCO2)C(c1cccs1)N1CCN(c2ccccc2)CC1 (stereo not given) | 0.57 | -4.5
c1ccc2cc(-c3nc(-c4ccncc4)no3)ccc2c1 | 1.1 | 0.11
CC(CCc1ccccc1)NC(=O)C1CCN(S(=O)(=O)c2cnc[nH]2)CC1 (stereo not given) | 0.93 | -0.83
CC1CCN(C(=O)Cn2ccc3ccccc3c2=O)CC1 | 1 | 0.32
COc1cccc(C(=O)Nc2ccc3nc(N4CCN(c5ncccn5)CC4)cc(C)c3c2)c1OC | 1.2 | 1.7
CCc1ccccc1NC(=O)C1CC(c2cccc(OC)c2)=NO1 (stereo not given) | 1.1 | 1.5
COc1ccc(C2(CNC(C)=O)CCc3[nH]c4ccccc4c3C2)cc1OC (stereo not given) | 0.82 | -2.5
Cc1ccc(CCN2C(=O)CCC2(C)C(=O)NC2CCCCCCC2)cc1 (stereo not given) | 1 | -0.049
O=C(NCc1ccncc1)c1nnc(Cc2ccc(Cl)cc2)o1 | 1.2 | 1.9
O=C(CCn1c(=O)[nH]c2ccccc2c1=O)NCc1cccnc1 | 1.1 | 0.27
CCOCCCNC(=O)c1cc(Nc2ccccc2OC)nc2ccccc12 | 1.1 | 3.8
Cc1ccc(NC(=O)Nc2cccs2)c(Cl)c1 | 0.98 | -0.85
CCCNC(=O)CCCN1C(=O)CSc2ncccc21 | 1 | 0.29
CCOc1cc2sc(N3CCC(C(=O)NCCCOC(C)C)CC3)nc2cc1Br | 1.2 | 1.5
Cc1ccc(CNC(=O)C(C)C2Sc3ccccc3N(Cc3ccc(F)cc3Cl)C2=O)cc1 (stereo not given) | 0.93 | -1.3

Not a retest: an excerpt of the list.
SMILES | CBX7 AlphaScr | CBX7 AlphaScr z-score
COc1ccc(/C=C\c2onc(C)c2S(=O)(=O)N2CCC(C(=O)N3CCC(C)CC3)CC2)cc1 | 0.89 | -0.22
CCOCCn1cnc2sc(C(=O)NCCc3ccc(OC)c(OC)c3)c(C)c2c1=O | 1.1 | 2.1
CSCC[C@@H](C(=O)NCc1ccc2c(c1)OCO2)N1Cc2ccccc2C1=O | 0.95 | -0.14
COc1ccccc1CNC(=O)C1=CCN(S(=O)(=O)c2ccc(C)cc2)CC1 | 0.87 | -1.4

Later entries
SMILES | CBX7 AlphaScr | CBX7 AlphaScr z-score
COc1ccc(NC(=O)CCCN2C(=O)c3cccnc3C2=O)cc1 | 0.7 | -5.1
O=C1C2C3C=CC(C3=C(c3ccccc3)c3ccccc3)C2C(=O)N1c1ccc(Cl)cc1 (stereo not given) | 0.94 | -2.2
COc1cccc(-c2nc(C(=O)NCCc3ccc(C)cc3)c(C)o2)c1 | 1.1 | 1.3
CCOc1ccc(NC(=O)C2(NS(=O)(=O)c3cccc4cccnc34)CCCCC2)cc1 | 0.89 | -1.4
COc1ccc(CNC(=O)c2cnn(-c3ccccc3)c2-n2cccc2)cc1OC | 1 | 0.58
Cc1cc(N2CCc3ccccc3C2)n2nc(C)c(-c3ccc(Cl)cc3)c2n1 | 1.8 | 7.5
CC1(C)Cc2c(c(N3CCOCC3)nc3sc4c(NCc5ccccc5)nnnc4c23)CO1 | 1 | 0.8
Cc1cccc(CN2CCN(CC(=O)NC3CCCCCC3)C2=O)c1 | 1 | 0.2
COc1ccc(N(CC(=O)Nc2cc(C)ccc2C)S(=O)(=O)c2c(C)nn(C)c2C)cc1 | 1.1 | 0.65
COc1ccccc1-c1nc(-c2ccccn2)no1 | 0.76 | -3.8
CC(C)c1ccc(C2CC(=O)NC3=C2C(=O)CC(C)(C)C3)cc1 (stereo not given) | 0.96 | -0.45
Cc1cccc(-n2ccnc2SCC(=O)Nc2ccc(Cl)cc2)c1C | 0.82 | -0.18
Cc1ccc2c(c1)NCC(C(=O)NCc1ccccc1)O2 (stereo not given) | 1.1 | 0.3
CCC(=O)N1CCc2cc(S(=O)(=O)NC(C(=O)NCc3ccccc3OC)C(C)C)ccc21 (stereo not given) | 1.1 | 1.9
CCc1ccccc1Nc1nc(-c2ccncc2)cs1 | 1 | -0.0065
CCCCN1CCCc2cc(CN(CCCN3CCOCC3)C(=O)Nc3ccccc3)ccc21 | 0.53 | -19
O=C(CSc1ncn[nH]1)c1ccc(Br)cc1 | 0.85 | -1.7
COc1ccc(OC)c(NC(=O)c2cc3c(n(-c4ccccc4)c2=O)CCCC3=O)c1 | 1 | 0.26
COc1ccc(-c2ncnn2-c2cccc(Cl)c2C)cc1 | 1.6 | 12
Cc1ccc(C(=O)Nc2cc(-c3nc4ncccc4o3)ccc2C)cc1C | 0.99 | -0.26
Cc1ccc(S(=O)(=O)N2CCCC(C(=O)NC3CCCc4ccccc43)C2)cc1 (stereo not given) | 0.99 | -0.062
COc1ccccc1N1CCN(C(=O)CCC2=NS(=O)(=O)c3ccccc3N2)CC1 | 0.96 | -0.47
Cc1ccc(Cl)cc1N(C)C(=O)Cn1nc(Cc2ccncc2)c2ccccc2c1=O | 0.99 | -0.75
CCCCN(CC)CCCNC(=O)c1cc2c(-c3cccc(OC)c3)nn(C)c2s1 | 1 | 0.38
CCOc1ccc(C(=O)Nc2ccc(-c3nc4cc(CC)ccc4o3)cc2)cc1 | 1.5 | 2
COc1ccc(-c2nc(C(=O)NCc3ccc(F)cc3)c(C)o2)cc1 | 1 | 0.46
C#CCN1C(=O)C(O)(CC(=O)c2ccc(-n3cccc3)cc2)c2cc(Br)ccc21 (stereo not given) | 0.58 | -0.55
CCOc1ccccc1NC(=O)c1c(NC(=O)c2ccccc2)sc2c1CCC2 | 1.1 | 3.6
O=C(NCCCn1ccnc1)c1cnn2c(C(F)F)cc(-c3ccccc3)nc12 | 1 | 1.2
CCC(Sc1nccn1C)C(=O)Nc1ccc(S(N)(=O)=O)cc1 (stereo not given) | 0.98 | -0.31
CC(C)CN(CCCNC(=O)Cn1nc(-c2ccc(Cl)cc2)ccc1=O)CC(C)C | 0.98 | -1
COc1ccc(CNc2oc(COc3cccc(C)c3)nc2C#N)cc1 | 0.67 | -11
CN(C)CCNC(=O)CN1C(=O)CSc2ccccc21 | 1 | -0.066
COC(=O)c1ccc(C2C(Oc3ccccc3)C(=O)N2CCc2ccc(F)cc2)cc1 (stereo not given) | 1.1 | 2.8
COc1ccc(-c2cc(C(F)(F)F)nc(NCc3ccccc3)n2)cc1OC | 1.1 | 4
O=C(Cn1ccc2ccccc2c1=O)NCC(=O)N1CCCc2ccccc21 | 0.89 | -1.1
COc1cc2c(cc1OC)C1C(C(=O)NCCc3cccc(C)c3)c3ccccc3C(=O)N1CC2 (stereo not given) | 1 | 1.3
O=C(Cn1cnc2scc(-c3ccccc3)c2c1=O)Nc1cccc(C(F)(F)F)c1 | 0.92 | -2.1
CCOc1ccc(-n2ccnc2SCC(=O)Nc2cc(C)cc(C)c2)cc1 | 1 | 0.033
Cc1nc2cc(CO)ccc2n1-c1ccccc1 | 0.96 | -0.74
CCCc1c(O)nc(SCCC(=O)O)[nH]c1=O | 1.3 | 4.2
Cc1ccc(CNC(=O)c2nc(-c3ccccc3C)oc2C)cc1 | 0.81 | -3.4
COc1ccc(CNC(=O)CCC(=O)Nc2ccc3nc(N4CCCCC4)cc(C)c3c2)cc1 | 1.1 | 1
CCOc1ccc2nc(N3CCCC(C(=O)N4CCc5ccccc54)C3)sc2c1 (stereo not given) | 0.76 | -6.4
O=C(Cn1cc(S(=O)(=O)c2ccc(F)cc2)c(=O)c2cc(F)ccc21)Nc1ccccc1 | 0.85 | -2.1
O=C(Nc1ccc2c(c1)OCCO2)c1cn(-c2ccc(Cl)cc2)c(=O)c2ccccc12 | 0.91 | -3
CCCSc1nnc(-c2ccccc2NC(=O)CC)c(=O)[nH]1 | 1 | 0.82
COc1ccccc1NC(=O)c1c(NCc2cccc(F)c2)sc2c1CCC2 | 1 | 0.11
CCCCNC(=O)c1ccc2c(c1)N(Cc1ccc(Cl)cc1)C(=O)c1ccccc1S2(=O)=O | 0.97 | -0.69
COc1ccc(-c2nc(CSCC(=O)N3CCC(Cc4ccccc4)CC3)c(C)o2)cc1OC | 0.9 | -1.5
CCOC(=O)c1cc(-c2ccc(OC)cc2)n(CCC(=O)NC2CCCCC2)c1C | 0.95 | -1.2
COc1ccccc1C(CCNCc1ccc(C)cc1)c1ccc2c(c1)OCO2 (stereo not given) | 1.3 | 2.4
Cc1ccccc1NC(=O)C1CCCN(S(=O)(=O)c2c(C)noc2C)C1 (stereo not given) | 1.1 | 0.6
COc1ccc(NC(=O)CN(c2cc(C)cc(C)c2)S(=O)(=O)c2c(C)noc2C)cc1Cl | 0.93 | -0.6
Cc1ccc(-n2c3c(cc(C(=O)Nc4ccc(Br)cc4)c2=O)C(=O)CC(C)(C)C3)cc1 | 1 | 0.16
Cc1nc2cc(C(=O)NCCC3=CCCCC3)ccc2n1-c1cccc(F)c1 | 1 | 0.017
Cc1ccc(NC(=O)Nc2ccccc2Cl)nc1 | 0.95 | -0.2
Cc1c(C(=O)Nc2ccc(F)cc2)sc2ncn(Cc3ccccc3F)c(=O)c12 | 1 | -0.036
CCn1c(SCC(=O)Nc2ccc(C(C)=O)cc2)nnc1-c1cccnc1 | 0.98 | -0.66
COc1ccc(CN2CCN(Cc3ccccc3C)CC2)c(OC)c1OC | 1 | 0.024

Five compounds picked at random from the list so far:
SMILES | CBX7 AlphaScr | CBX7 AlphaScr z-score
Cc1ccc(-n2c3c(cc(C(=O)Nc4ccc(Br)cc4)c2=O)C(=O)CC(C)(C)C3)cc1 | 1 | 0.16
O=C(Cn1cc(S(=O)(=O)c2ccc(F)cc2)c(=O)c2cc(F)ccc21)Nc1ccccc1 | 0.85 | -2.1
CCCCNC(=O)c1ccc2c(c1)N(Cc1ccc(Cl)cc1)C(=O)c1ccccc1S2(=O)=O | 0.97 | -0.69
CCOc1ccc2nc(N3CCCC(C(=O)N4CCc5ccccc54)C3)sc2c1 (stereo not given) | 0.76 | -6.4
CCn1c(SCC(=O)Nc2ccc(C(C)=O)cc2)nnc1-c1cccnc1 | 0.98 | -0.66

Next part
SMILES | CBX7 AlphaScr | CBX7 AlphaScr z-score
CCC1Sc2ccccc2N(CC(=O)NCCOC)C1=O (stereo not given) | 1 | 0.31
CCOc1ccc(NS(=O)(=O)c2ccc3[nH]cc(C(=O)N4CCOCC4)c(=O)c3c2)cc1 | 0.94 | -1
O=C(NCC1CCCO1)c1cc(=O)[nH]c2ccc(S(=O)(=O)N3CCCCC3)cc12 (stereo not given) | 1 | 0.059
Cc1ccc(-n2c3c(cc(C(=O)Nc4cccnc4)c2=O)C(=O)CC(C)(C)C3)cc1 | 1 | 0.12
O=C(CN1CCN(Cc2ccccc2F)C1=O)NCc1cccnc1 | 1.1 | 0.91

These rows are one share of the data. The share of hits here may be higher or lower than overall.
